# Compound activity: PubChem BioAssay, Center for Chemical Genomics, University of Michigan
# HIV TAR-Tat: TAR RNA-Tat peptide displacers, HIV-1, primary screen, biochemical, FRET, FAM/TAMRA-labeled Tat. AID 1259389, 2018. HIV-1 TAR RNA, Tat peptide displacement FRET; active compounds read high. hit rate 0.6% among 100,000. z-score (test concentration not listed);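 further: score is relative to mean and SD of negative controls; some compounds called inactive have numbers as strong as hits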
# CDC25B CDK2 inh: primary biochemical HTRF screen for blockers of M-phase inducer phosphatase 2 binding to CDK2/cyclin A. z-score (concentration not given with the values). hit rate 0.72% among 94,000. HTRF CDC25B-CDK2/CyclinA binding, anti-His/anti-Flag; active compounds read high. P30305+P24941. AID 1259370, 2018;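 further: score is relative to mean and SD of negative controls; strong numbers were not always called active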
# Starred values were filed as active, the others as inactive; / = no result given.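 How the source made its calls: active means z-score from 3 up in half or more of its runs; inactive means the rest.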
SMILES,HIV TAR-Tat,CDC25B CDK2 inh
COc1cccc(OCc2nc3cc(C)c(C)cc3[nH]2)c1,0.78,-1.1
COc1ccc(OC)c(C2NC(=O)c3n[nH]c(-c4ccco4)c32)c1 (stereo not drawn),-1.3,0.95
CC1CCN(C(=O)Cn2cc3c(n2)CCC(C)C3)CC1 (stereo not drawn),/,0.12
CCCc1cc(=O)c2c(=O)n(-c3ccccc3)[nH]c2[nH]1,-2.7,-2.8
CC(=O)Nc1nc2c(Br)cc(Br)cc2c(=O)s1,/,-0.42
COc1ccc(-c2csc(C)n2)cc1S(=O)(=O)N1CCOCC1,0.87,/
CCCCCCn1c(CN2CCC(C(N)=O)CC2)nc2c1c(=O)n(C)c(=O)n2C,2.8,-2
COc1cc(C2c3c(-c4ccccc4O)n[nH]c3C(=O)N2Cc2ccncc2)ccc1O (stereo not drawn),1.4,-0.68
O=c1[nH]c2c(s1)C(c1ccc(Br)cc1)C1C3CCC(C3)C1S2 (stereo not drawn),/,0.9
CC(C)CC(NS(=O)(=O)c1ccc2[nH]c(=O)ccc2c1)C(=O)N1CCN(C)CC1 (stereo not drawn),2.5,/
Cc1ncc(S(=O)(=O)c2ccc(Cl)cc2)c(N)n1,/,-1.4
CCOc1ccc(-n2c(N)c(C#N)c3nc4ccccc4nc32)cc1,/,-5.7
CSc1ccc(CCNS(=O)(=O)c2ccc3c(c2)NC(=O)CCS3)cc1,1.1,/
O=C(CSc1nnc2ccc3ccccc3n12)c1cccs1,1.1,-1.2
N#Cc1c(-c2ccccc2)nc(N2CCOCC2)[nH]c1=O,-0.14,-0.76
OC(c1ccccc1)c1ccccn1 (stereo not drawn),-0.56,0.78
COc1ccc(C2CC(=O)NC3=C2C(=O)CC(C)(C)C3)cc1Br (stereo not drawn),-0.45,0.32
CCc1cc2c(cc3c(=O)n(CC(=O)NC4CCCC(C)C4C)nc(CC)n32)s1 (stereo not drawn),1,-1.6
COc1ccc(Cc2nc(-c3ccccc3)n[nH]c2=S)cc1,/,-3.3
O=C(Nc1nnc(CCN2CCCCC2)s1)c1cccc(-n2cnnc2)n1,1.8,/
CCCN1C(=O)C2(c3ccccc31)c1c(oc3ccc(C)cc3c1=O)C(=O)N2CCO (stereo not drawn),0.88,-1.1
O=C(NCc1c(-c2ccc(F)cc2)nc2n1CCS2)C1COc2ccccc2O1 (stereo not drawn),-0.81,/
COc1cccc(C2/C(=C(\O)c3ccc(Br)cc3)C(=O)C(=O)N2CCCn2ccnc2)c1 (stereo not drawn),-0.41,0.38
Cc1cc(=O)n2nc(N3CCC(C(=O)NCCC(C)C)CC3)sc2n1,0.78,1.1
CCOC(=O)c1c(S(=O)(=O)NCC(=O)NC2CC2)c(C)n(C)c1C,1.6,/
Cc1nn(CC(=O)NCc2cccs2)c(=O)c2cc3occc3n12,-0.29,-1.7
CC(C)NC(=O)C1CCN(c2ccccc2)C1=O (stereo not drawn),0.08,/
COc1ccc2cc(S(=O)(=O)c3ccc(Cl)cc3)c(=O)oc2c1,/,-2.5
Cc1nn(S(=O)(=O)c2ccc(OC(C)C)cc2)c(C)c1S(=O)(=O)N1CCOCC1,0.77,/
O=C(O)CN1CCSc2ccc(S(=O)(=O)N3CCCC3)cc21,0.53,/
CCCNC(=O)C(=O)Nc1c2c(nn1-c1ccc(F)cc1)CSC2,2.2,/
Cc1cc(C)n2nc(-c3ccc(Cl)cc3)cc2n1,-10,-0.37
COc1ccc(Nc2ncnc3c2nc2n3CCCC2)cc1,0.44,/
O=C(CN1C(=O)CSc2ccc(S(=O)(=O)N3CCCC3)cc21)Nc1cccnc1,-0.37,/
C=C(C)Cn1c(CO)nc2ccccc21,0.56,0.28
Cc1ccc(-c2c(NCCc3sccc3C)c(=O)c2=O)cc1C,-2,/
O=C(Cn1ncc2c3ccccc3n(Cc3cccc(Cl)c3)c2c1=O)NCC1CCCO1 (stereo not drawn),-3.9,-0.48
Cc1ccc2nc(NC3=NC(CC(=O)O)C(=O)N3)nc(C)c2c1 (stereo not drawn),/,-2.3
CCCCOC(=O)COc1ccc2c(=O)c(Oc3cc(C)ccc3C)coc2c1,/,-0.21
CC(C)CNc1nc(Oc2ccc(=O)n(-c3ccccc3)n2)nc(N2CCOCC2)n1,0.3,0.16
Cc1cc(-c2ccc(C(C)C)c(S(=O)(=O)N3CCN(C4CCCCC4)CC3)c2)on1,0.59,/
CC(C)CCC(O)(c1ccc(O)cc1)C(CN1CCOCC1)c1ccccc1 (stereo not drawn),1.3,-0.65
COc1cccc(Nc2cc(N3CCOCC3)c3noc4c3c2C(=O)c2ccccc2-4)c1,1.4,-2.1
O=S(=O)(/N=C(\NNC(=S)Nc1cccc(C(F)(F)F)c1)N1CCCC1)c1ccccc1,/,-1.2
CN1CCN(C(=O)CN(C)S(=O)(=O)c2ccc3c(c2)CCCC(=O)N3)CC1,-0.86,/
COc1cc(CCC(=O)Nc2c(C(=O)N3CCN(c4ccccc4)CC3)oc3ccccc23)on1,1.9,-0.43
O=C(NCc1cccs1)c1cnc2sc3c(n2c1=O)CCCC3,0.84,/
Cc1n[nH]c(C)c1Oc1ccc(Cl)cc1,/,-1.8
CCc1nnc2c(NC)nc3ccccc3n12,-0.03,/
Cc1ccccc1Cn1cccc1CNS(=O)(=O)c1ccc2ccccc2c1,0.55,/
CC(=O)[C@@]1(O)CC[C@H]2[C@@H]3CCC4=CC(=O)CC[C@]4(C)[C@H]3CC[C@@]21C,/,1.1
C=CCn1c(=S)sc2c(SCC(=O)Nc3nccs3)ncnc21,2.3,-1.4
Cc1ccc(-c2nc3ccccc3n2Cc2cccc(F)c2)o1,-4.2,/
Cc1sc2ncnc(SCC(=O)Nc3sc4c(c3C#N)CCCC4)c2c1C,2,0.36
CC(=O)c1cnn(-c2ccccn2)c1C,/,-1.5
CCCCN(CC)C(=O)Cc1cn(C)c2ccccc12,/,-0.75
COc1cccc(N2C(=O)Nc3ccccc3C2(O)C(=O)NCCN(C)C)c1 (stereo not drawn),/,-1.1
CCOc1cccc2c1OC1(CCC(C)CC1)N1N=C(c3cccnc3)CC21 (stereo not drawn),/,-2
CCOC(=O)CSc1ccc2nnc(-c3ccccc3)n2n1,/,-0.88
CC(=O)O[C@H]1CC[C@]2(C)C3=CC(=O)[C@@]4(C)C(C[C@@H]5OC6(OCC(C)CC6Br)[C@@H](C)[C@@H]54)C3CC[C@H]2C1 (stereo partly drawn),1.8,/

# Additional compounds follow.
SMILES,HIV TAR-Tat,CDC25B CDK2 inh
CN1CCN(c2ccc(NC(=O)c3ccccc3)cc2)CC1,/,-0.83
COc1ccc(-c2c(C)nn3c(NCc4ccc5c(c4)OCO5)cc(C)nc23)cc1OC,-0.14,-0.89
Cc1csc(NC(=O)C2CCN(c3ccc(-c4cccs4)nn3)CC2)n1,0.43,/
CC1=C(C(=O)OCC2CCCO2)C(c2ccc(OCc3ccccc3)cc2)C2=C(CCCC2=O)N1 (stereo not drawn),0.22,-0.54
N#Cc1nc(-c2ccc(S(=O)(=O)N3CCc4ccccc4C3)cc2)oc1NCCc1ccccc1,-2.1,-1.5
O=C(Nc1ccc(OC(F)(F)F)cc1)c1nn2c(c1Br)NC(c1cccs1)CC2C(F)(F)F (stereo not drawn),/,-3.6
O=C(Cn1c(SCCOc2ccccc2Cl)nc2ccccc21)N1CCCC1,-0.2,1.4
Cc1nc2ccccn2c(=O)c1NC(=O)CCC1CCCCC1,0.47,/
COc1cc(N=C(N)N=C(N)N)cc(OC)c1,/,-2
Cc1sc(-c2nc(-c3cccc(Cl)c3)no2)cc1S(=O)(=O)N1CCc2ccccc2C1,1.7,/
COC(=O)C(C#N)(Cc1ccccc1)Cc1ccccc1,/,-2.1
COC(=O)c1ccc(N2Cc3cccc(OC)c3Oc3ncccc32)s1,1.4,-0.51
CCCNC(=O)c1cnn2c3c(cnc12)CCCCCC3,0.99,/
CCOC(=O)c1nnn(-c2cc(Cl)cc(Cl)c2)c1Sc1ccccn1,/,2.9
CCN(CCS(=O)(=O)N1CCNCC1)S(=O)(=O)c1ccc(C2CCCCC2)cc1,0.48,/
Cc1ccnc(NS(=O)(=O)c2cc(-c3cc(C)no3)ccc2C)c1,0.79,/
C=CCN1C(=O)/C(=C2/C(=O)N(CC(=O)Nc3ccc(C)cc3)c3ccccc32)SC1=S,/,-1.4
Cc1cc(C)n(CCCO)c(=O)c1C#N,0.5,1
O=c1c(NCC2CCCO2)c(-c2ccc(Cl)cc2)c1=O (stereo not drawn),-0.68,/
CCOc1cccc2c1Oc1[nH]c(-c3ccc(OC)c(OC)c3)nc(=S)c1C2,0.5,-1.1

# Already shown: entries from further up.
SMILES,HIV TAR-Tat,CDC25B CDK2 inh
COc1cc(C2c3c(-c4ccccc4O)n[nH]c3C(=O)N2Cc2ccncc2)ccc1O (stereo not drawn),1.4,-0.68
O=c1[nH]c2c(s1)C(c1ccc(Br)cc1)C1C3CCC(C3)C1S2 (stereo not drawn),/,0.9
CC(C)CC(NS(=O)(=O)c1ccc2[nH]c(=O)ccc2c1)C(=O)N1CCN(C)CC1 (stereo not drawn),2.5,/

# (continued)
SMILES,HIV TAR-Tat,CDC25B CDK2 inh
CN(C)CCNc1cnn(-c2ccccc2)c(=O)c1Cl,-1.4,-1.1
O=C(CCC(=O)NNC(=O)c1ccc(F)cc1)NNC(=O)c1ccc(F)cc1,/,-1.3
CCn1c(=O)c(-c2noc(CCC(=O)O)n2)nn(-c2ccc(C)cc2)c1=O,-0.94,-0.78
COc1cccc(OC)c1OCC(O)CN1CCC(CN2C(=O)c3cccc4cccc(c34)C2=O)CC1 (stereo not drawn),/,-2.5
CC(=O)N1CCc2cc(S(=O)(=O)N3CCc4cc5cccc(C)c5nc43)ccc21,-1.2,-1.7
O=c1cc(CSCc2ccc(Cl)cc2)nc2sccn12,-0.62,/
CSc1nc(=O)[nH]n1-c1ccc([N+](=O)[O-])cc1[N+](=O)[O-],/,-1.6
COc1ccc(C2Nc3ccc(C)cc3-c3cc(C)nn32)c(OC)c1 (stereo not drawn),2.7,-2.3
CC(NC(=O)c1cn(C)c2ccc(S(=O)(=O)N3CCCC3)cc2c1=O)c1ccc2c(c1)OCCO2 (stereo not drawn),0.17,-0.17
CCCN(CCC)c1nn2c(=O)c(C(=O)NCCc3cccs3)cnc2s1,0.24,/
CCNc1ncnc2oc(C)c(C(=O)OCC)c12,1.3,/
O=C(c1cc2ccccc2s1)N1CCOCC1,/,-2.6
COCC(C)NC(=O)C1=CC(c2ccc3c(c2)OCO3)=NS(=O)(=O)N1C (stereo not drawn),3.3,-2.5
O=C(C1c2ccccc2Oc2ccccc21)N1CCN(c2ccc(F)cc2)CC1,1.6,-1.4
Cc1ccnc(N2C(=O)c3ccccc3C2Nc2ccccc2)c1 (stereo not drawn),1.2,0.36
O=C(C1CCCN(c2ncnc3c2nc2n3CCCCC2)C1)N1CCCCC1 (stereo not drawn),-0.76,/
COc1ccc(C2C(C(=O)OC(C)C)=C(C)NC3=C2C(=O)CCC3)cc1 (stereo not drawn),1.9,-0.83
Cc1ncc(CO)c2c1Oc1[nH]c(-c3ccccc3F)nc(=S)c1C2,2.4,-0.55
COC(=O)C1SCCN1S(=O)(=O)c1ccc(-c2cc(C(F)(F)F)on2)s1 (stereo not drawn),/,-3.1
CC(NS(=O)(=O)c1ccccc1)c1nc(-c2ccccc2Cl)no1 (stereo not drawn),2.4,-1.4
Cc1c(C(=O)N2CCN(C)CC2)oc2ccc(S(=O)(=O)N3CCOCC3)cc12,/,-0.85
CC(=O)N1C(C(=O)O)CSC1c1ccc(C)cc1 (stereo not drawn),2.1,1.1
O=C(CSc1nc(-c2cccs2)nc2cc(=O)[nH]n12)Nc1ccccc1Cl,0.21,/
O=C(CSc1nc2c(c(=O)[nH]1)CCCC2)Nc1ccc(Br)cc1,2.8,-2.2
CCOC(=O)c1cc(S(=O)(=O)N(C)CC(=O)Nc2nccs2)cn1C,-0.34,/
CCOC(=O)N1CCC(NC(=O)C2CCN(C(=O)N3CC(C)Oc4ccccc43)CC2)CC1 (stereo not drawn),0.59,/
COc1ccc(N(C)S(=O)(=O)c2cc(Br)cc3c2N(C(=O)C2CC2)CC3)c(OC)c1,0.69,2.3
O=C(NCc1cccs1)C1CCCN1c1nnc(N2CCCC2=O)s1 (stereo not drawn),1.2,-1.9
Cc1ccc(Cn2c(=O)n(Cc3ccco3)c(=O)c3sc4ccccc4c32)cc1,0.75,-0.04
CCOc1ccccc1C1C(C(=O)OC(C)C)=C(C)Nc2nnnn21 (stereo not drawn),1.1,-0.7

# Compounds above containing a Cl atom:
SMILES,HIV TAR-Tat,CDC25B CDK2 inh
Cc1ncc(S(=O)(=O)c2ccc(Cl)cc2)c(N)n1,/,-1.4
COc1ccc2cc(S(=O)(=O)c3ccc(Cl)cc3)c(=O)oc2c1,/,-2.5
Cc1cc(C)n2nc(-c3ccc(Cl)cc3)cc2n1,-10,-0.37
O=C(Cn1ncc2c3ccccc3n(Cc3cccc(Cl)c3)c2c1=O)NCC1CCCO1 (stereo not drawn),-3.9,-0.48
Cc1n[nH]c(C)c1Oc1ccc(Cl)cc1,/,-1.8
O=C(Cn1c(SCCOc2ccccc2Cl)nc2ccccc21)N1CCCC1,-0.2,1.4
Cc1sc(-c2nc(-c3cccc(Cl)c3)no2)cc1S(=O)(=O)N1CCc2ccccc2C1,1.7,/
CCOC(=O)c1nnn(-c2cc(Cl)cc(Cl)c2)c1Sc1ccccn1,/,2.9
O=c1c(NCC2CCCO2)c(-c2ccc(Cl)cc2)c1=O (stereo not drawn),-0.68,/
CN(C)CCNc1cnn(-c2ccccc2)c(=O)c1Cl,-1.4,-1.1
O=c1cc(CSCc2ccc(Cl)cc2)nc2sccn12,-0.62,/
CC(NS(=O)(=O)c1ccccc1)c1nc(-c2ccccc2Cl)no1 (stereo not drawn),2.4,-1.4
O=C(CSc1nc(-c2cccs2)nc2cc(=O)[nH]n12)Nc1ccccc1Cl,0.21,/
